RE007 growth inh = less growth of the S. pombe RE007 Vpr strain; S. pombe RE007 Vpr strain, BacTiter-Glo ATP luminescence, 24 h; control for the full effect not named in the record; AID 651644; 360,000 compounds, 0.21% hits; Potency, µM (top dose mostly 92.2 µM), for the others: at the highest dose activity change, negative = less growth; active = well fitted falling curve with a large enough effect; inconclusive = small, poorly fitted or top-dose-only effect; inactive = no such curve, though single readings can be large or run the other way;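 note: % is set by controls: 0 for no effect and ±100 for the full control effect; nearly all actives have a fitted effect of over 50% in size; the assay follows cell death caused by Vpr and the record does not say whether a fall means rescue or toxicity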
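Fission yeast RE007 carrying one integrated HIV-1 vpr copy, seeded at OD 0.01 in PMG+AL medium with 23 nL pinned compound. Grown 24 h at 30 degrees; viability read by BacTiter-Glo luminescence after 5 min.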
Marburg entry inh = inhibitors of Marburg virus binding or cell entry; Marburg virus pseudotyped entry inhibition, cell reporter; control for the full effect not named in the record; about a third of the inactives were read at about 46 µM; 300,000 compounds, 1.8% hits; Potency, µM (top dose mostly 37.8 µM), without a hit: at the highest dose activity change, negative = inhibition, actives largely listed as inhibitors; AID 540276; active = well fitted inhibition curve with a large enough effect; inconclusive = small, poorly fitted or top-dose-only effect, or effect the other way; inactive = flat fitted curve, though single readings scatter; tested in HEK293 cells; about a fifth of its hits are not listed in these tables; note: % is set by controls: 0 for no effect and ±100 for the full control effect; luciferase read-out
StopGo reporter = lowers the luciferase signal of an FMDV 2A StopGo reporter. human cells with a luciferase reporter of 2A StopGo recoding; control for the full effect not named in the record. Potency, µM (top dose mostly 57.9 µM), inactives show top-dose signal change, negative = less light. 410,000 compounds, 1.2% hits; active = well fitted falling curve with a large enough effect; inconclusive = small, poorly fitted or top-dose-only effect; inactive = no such curve, though single readings can be large or run the other way; tested in HEK293T cells; note: % is set by controls: 0 for no effect and ±100 for the full control effect; nearly all actives have a fitted effect of over 45% in size; luciferase light after 4 h
Cruzain Triton = blocks cruzain activity in presence of Triton detergent | purified cruzain, Z-FR-AMC fluorescence, 0.01% Triton | Potency, µM, for the others: max response, negative = inhibition, actives largely listed as inhibitors | 200,000 compounds, 0.43% hits; active = well fitted curve in the direction sought with a large enough effect; inconclusive = small, poorly fitted or top-dose-only effect, or another doubt; inactive = no such curve, though single readings can be large; an effect the other way counts as inactive or inconclusive;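 note: plate controls were neutral wells for no effect and buffer without enzyme for full effect; nearly all actives have a fitted effect of over 40% in size; top concentration of the series not given in the record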
Target sequence (P25779 123-467 limits assumed): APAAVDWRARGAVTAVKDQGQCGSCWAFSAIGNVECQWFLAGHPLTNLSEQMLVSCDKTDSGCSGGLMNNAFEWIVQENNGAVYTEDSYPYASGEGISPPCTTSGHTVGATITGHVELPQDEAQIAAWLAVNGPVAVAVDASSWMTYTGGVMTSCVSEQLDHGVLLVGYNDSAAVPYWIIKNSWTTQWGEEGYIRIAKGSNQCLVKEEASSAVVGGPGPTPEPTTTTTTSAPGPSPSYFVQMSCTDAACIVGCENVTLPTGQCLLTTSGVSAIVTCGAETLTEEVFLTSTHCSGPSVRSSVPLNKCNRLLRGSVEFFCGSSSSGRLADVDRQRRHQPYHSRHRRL
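Sodium acetate buffer (100 mM, pH 5.5) containing 5 mM DTT and 0.01% Triton X-100 hosted 1.5 nM cruzain and test compound for 15 min at room temperature. Cleavage of 2 uM Z-FR-AMC was then tracked by fluorescence.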
Cruzain noTriton = blocks cruzain activity in detergent-free assay. 200,000 compounds, 2.3% hits. P25779. Potency, µM, for inactives: max response, negative = inhibition, usual class: inhibitors. purified cruzain, Z-FR-AMC fluorescence, no detergent. AID 1476; active = well fitted curve in the direction sought with a large enough effect; inconclusive = small, poorly fitted or top-dose-only effect, or another doubt; inactive = no such curve, though single readings can be large; an effect the other way counts as inactive or inconclusive;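 note: plate controls were enzyme without inhibitor for no effect and buffer without enzyme for full effect; nearly all actives have a fitted effect of over 40% in size; top concentration of the series not given in the record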
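Purified cruzain at 1.5 nM, pre-incubated 15 min with compound at room temperature in 100 mM sodium acetate pH 5.5, 5 mM DTT, 0.00005% Triton X-100. Reaction started with 2 uM Z-FR-AMC; AMC fluorescence increase over 60 s gives rate.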
LASV entry inh = inhibitors of Lassa virus binding or cell entry. Lassa virus pseudotype entry inhibition, cell reporter; control for the full effect not named in the record. Potency, µM (highest dose often 37.9 µM), inactives show top-dose activity change, negative = inhibition, usual class: inhibitors. 300,000 compounds, 1.2% hits; active means well fitted inhibition curve with a large enough effect; inconclusive means small, poorly fitted or top-dose-only effect, or effect the other way; inactive means flat fitted curve, though single readings scatter; tested in HEK293 cells; note: % is set by controls: 0 for no effect and ±100 for the full control effect; nearly all actives have a fitted effect of over 50% in size; luciferase read-out
SARS PLP yeast = inhibitors of SARS-CoV papain-like protease in yeast | S. cerevisiae expressing SARS-CoV PLpro, growth rescue; control for the full effect not named in the record | Potency, µM (highest dose often 32.9 µM), for the others: top-dose activity, positive = growth rescue | 330,000 compounds, 0.19% hits; note: 0% is about no effect; nearly all actives have a fitted effect of over 55% in size; growth read by luminescence after 48 h
NS1 function inh = blocks influenza NS1 protein function; S. cerevisiae slowed by influenza A NS1, growth recovery by OD600; Potency, µM (top dose mostly 46.1 µM), for inactives: at the top dose activity, positive = more growth; 270,000 compounds, 0.4% hits; AID 2326; note: actives are rising curves; nearly all actives have a fitted effect of over 50% in size
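Compounds were scored for reversing the slow growth caused by influenza A NS1 in S. cerevisiae, measured by optical density at 600 nm. Assay medium contained 2% galactose at pH 6.0; NS1-free yeast of the same strain were the positive control.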
* hit, by the source's call; u = inconclusive; x = no result given; & = joins results of further samples; [ ] = dose if it differs, or a comment. Unless noted, calls come from the whole dose curve; as a rule, active means well fitted rising curve with a large enough effect; inconclusive means small, poorly fitted or top-dose-only effect; inactive means no such curve, though single readings can be large or run the other way. Potency is the fitted concentration of half-maximal effect. Not a hit list. Share with any hit: about 4.6%.

Values in the order: RE007 growth inh	Marburg entry inh	StopGo reporter	Cruzain Triton	Cruzain noTriton	LASV entry inh	SARS PLP yeast	NS1 function inh
> Nc1ncc(Br)cc1S(=O)(=O)NCCC(=O)N1CCN(c2ccccc2)CC1
  5%	x	-2%	x	x	x	3%	-22%
> CN1CCN(C(=O)c2ccc(CN3CCOCC3)cc2)CC1
  8%	2%	4%	5.4%	-1%	6%	10%	7%
> CC(C)C(=O)NC(NC(=S)Nc1cccc2cccnc12)C(Cl)(Cl)Cl (stereo not drawn)
  4%	-30%	-5%	-1.8%	-8%	-20%	-4%	0%
> COc1ccc(Cc2nnc(Nc3ccc(C)cc3C)[nH]c2=O)cc1
  -12%	23%	8%	4.0%	2%	16%	-15%	-17%
> CC1=CC=CN2C1=NC(=O)CC2(C)C(=O)N(CC(=O)NC1CCCC1)Cc1ccccc1 (stereo not drawn)
  12%	10%[46.1 µM]	-15%	x	x	20%	1%	0%
> CC(C)c1ccc(NC(=O)Cn2c(=O)oc3cc(S(=O)(=O)N4CCCC4)ccc32)cc1
  x	u	-1%	-7.9%	6%	-1%[46.1 µM]	x	x
> O=C(CSc1nc2ccccc2c(=O)[nH]1)Nc1ccc(Br)cc1
  10%	8%[46.1 µM]	3%	x	x	-13%[46.1 µM]	0%	-9%
> Cc1nn(-c2ncc(C(F)(F)F)cc2Cl)c(=O)n1-c1ccccc1Cl
  1%	u	-15%	3.8%	-1%	1%	-28%	-5%
> Cc1cc(NC(=O)CN(C)S(=O)(=O)c2ccc3c(c2)CCCC(=O)N3)ccc1Br
  x	x	u	-4.8%	2%	-29%[46.1 µM]	x	x
> C#CCOc1ccccc1CNC1CCN(Cc2ccccc2)CC1
  -17%	x	-10%	x	x	x	-3%	4%
> COC1OC2COC(c3ccccc3)OC2C2OC12 (stereo not drawn)
  1%	-1%	1%	x	x	10%	x	x
> Cn1c(=O)c2c(SCc3cccc(C(F)(F)F)c3)nc(-c3ccco3)nc2n(C)c1=O
  2%	u	-8%	1.3%	-1%	-38%[14.3 µM]	0%	-8%
> O=C(Nc1ccccn1)NC12CC3CC(CC(C3)C1)C2
  -7%	3%[46.1 µM]	-8%	3.9%	8%	-7%	-10%	u
> CCOC(=O)c1c(C)nc2c(c1-c1cc(OC)c(OC)c(OC)c1)C(=O)c1ccccc1-2
  -8%	-27%	1%	5.1%	u	2%	4%	-1%
> O=C(CCN1CCCCC1=O)NC1CCCc2c1cnn2-c1ccccc1F (stereo not drawn)
  -10%	x	-1%	x	x	x	2%	-12%
> CC(=O)N=c1ncn(CC(COC(C)=O)OC(C)=O)c2nc[nH]c12 (stereo not drawn)
  -2%	30%[46.1 µM]	-13%	1.6%	1%	2%	-3%	-5%
> O=S(=O)(c1ccccc1)c1nc(-c2cccs2)oc1SCc1ccc(F)cc1
  x	0%[46.1 µM]	-3%	-2.9%	-2%	-1%[46.1 µM]	x	x
> CN(CCNC(=O)CCNC(=O)Cn1ccc2ccccc2c1=O)Cc1ccccc1
  -3%	2%[46.1 µM]	-4%	0.4%	-9%	4%	5%	-12%
> Cc1ccc(C)c(N2N=C(C(=O)Nc3ccccc3N3CCCC3)CCC2=O)c1
  5%	u	u	x	x	u	-1%	-2%
> O=C(Nc1cccc(F)c1)NC1CCCCC1
  -20%	u	99%[activator]	3.4%	-1%	-15%	-10%	-20%
> CCOC(=O)c1ccc(NC(=O)c2c(NCc3cccc(OC)c3)sc3c2CCC3)cc1
  x	x	2%	-8.2%	-13%	u	x	x
> CC(C)(C)OC(=O)N1CCC[C@H]1C(=O)Nc1ccc(Br)cc1
  24%	x	-19%	x	x	x	-1%	-3%
> C[n+]1cccc(/C=N/Nc2nc(Cl)c(C#N)c(Cl)c2Cl)c1
  -3%	7%[46.1 µM]	-8%	x	x	27%[46.1 µM]	-3%	-34%
> COc1ccc(/C=C/C(=O)N[C@H](C(=O)O)C(C)C)cc1
  -4%	7%	-1%	x	x	-3%	2%	x
> CC(NC(=O)Nc1ccccc1Cl)c1ccc2c(c1)OCO2 (stereo not drawn)
  -5%	-10%[46.1 µM]	13%	x	x	u	-1%	-5%
> Cc1ccc(SCCC(=O)OCC(=O)Nc2ccc(S(N)(=O)=O)cc2)cc1
  -10%	x	-17%	x	x	x	-1%	3%
> Cc1cc(N/N=C/c2ccc(O)cc2O)c2ccccc2n1
  7%	x	-5%	x	x	x	-4%	-5%
> CC(=O)N1CCN(C(=O)c2ccc(Oc3ccccc3)cc2)CC1
  -4%	4%[46.1 µM]	-7%	x	x	7%	3%	x
> Cc1cc(Cl)ccc1OCC(=O)NCCCN1CCOCC1
  -12%	u	0%	-5.2%	-3%	10%	-3%	-1%
> Cc1ccc(NC(=O)COC(=O)Cn2c(C)csc2=O)c([N+](=O)[O-])c1
  -1%	-8%	6%	x	x	-4%[46.1 µM]	0%	x
> O=C(Nc1ccccc1F)c1ccc(Br)o1
  -9%	17%	43%[activator]	-1.0%&-0.9%	-4%&-7%	18%	2%	6%
> CC1CCN(S(=O)(=O)c2cccc(C(=O)Oc3ccc([N+](=O)[O-])cc3)c2)CC1
  20%	3%	-16%	-2.1%	6%	10%	16%	-23%
> CCCCN1C(=O)NC(NS(=O)(=O)c2ccc(N)cc2)(C(F)(F)F)C1=O (stereo not drawn)
  -5%	0%	3%	-0.3%	-3%	u	3%	2%
> Cc1cc2ccccc2n1CCNC(=O)c1cccs1
  -4%	x	-14%	-4.8%	u	x	-2%	u
> Cc1nn(Cc2nnc(SCC(=O)Nc3cccc(C(F)(F)F)c3)n2C)c(C)c1[N+](=O)[O-]
  -21%	u	0%	x	x	u	1%	-4%
> O=C(O)CSc1nc(C(F)(F)F)cc(=O)n1-c1ccccc1
  7%	12%	u	4.6%	0%	6%	-3%	-4%
> CCOC(=O)N1CCN(C(=O)CSCC(=O)Nc2nc(-c3cccs3)cs2)CC1
  2%	0%	14µM*	-5.0%	19%	-6%	6%	0%
> Cc1c(/C=N/O)sc2ccccc12
  -10%	11%[46.1 µM]	1%	x	x	11%[46.1 µM]	-8%	-49%
> Cc1cccc(NC(=O)CC2c3ccccc3Oc3ccccc32)c1
  -4%	1%	-12%	-8.7%	-4%	26%[46.1 µM]	8%	3%
> C=CCc1cccc2cc(C(=O)O)c(=O)oc12
  8%	u	-3%	0.5%	6%	0%	12%	-50%
> O=C(NCC(c1ccco1)N1CCCC1)c1sc2cc(F)ccc2c1Cl (stereo not drawn)
  -16%	u	u	x	x	-1%[46.1 µM]	-15%	x
> NC(=O)NNC1=Nc2cccc3cccc1c23
  1%	5%[46.1 µM]	6%	x	x	-2%	1%	-2%
> Cc1oc(-c2ccccc2F)nc1CS(=O)CC(=O)NC(C)C (stereo not drawn)
  x	u	15%	-0.6%	-17%	9%[46.1 µM]	x	x
> CC(C)Cc1nc(C(N)=O)c2[nH]c(=O)n(-c3ccc(F)cc3)c2n1
  -5%	x	-16%	-0.2%	-14%	x	-2%	12%
> COc1ccc(CCNC(=O)CSc2nc3ccccc3o2)cc1OC
  8%	4%	-5%	-3.5%	6%	-8%	2%	-8%
> COCCn1c(SC(C)C(=O)Nc2ccc(Cl)cn2)nnc1-c1ccncc1 (stereo not drawn)
  -12%	-11%[46.1 µM]	9%	x	x	x	5%	x
> CCCN(Cc1ccc(N(CC)CC)cc1)CC1CC1
  -16%	u	x	9.6%	-8%	-21%	-1%	-1%
> O=C(N/N=C/c1ccccn1)C12CC3CC(CC(C3)C1)C2
  14%	u	-23%	-1.7%	-7%	-13%	-5%	-18%
> CC1CCC2(CC1)NC(=O)N(Cc1cccc(C(F)(F)F)c1)C2=O (stereo not drawn)
  58%	u	-6%	x	x	-29%[46.1 µM]	-4%	x
> COc1ccc(N2CCN(C(=O)c3cc4c(-c5cccc(OC)c5)nn(C)c4s3)CC2)cc1
  -1%	-2%[46.1 µM]	-2%	1.5%	u	u	-6%	u
> CC(NC(=O)c1ccc(F)cc1)c1ccc(F)cc1 (stereo not drawn)
  15%	1%	-14%	1.0%	7%	u	7%	-21%
> O=C(NCCC1CCCCN1S(=O)(=O)c1ccccc1)C(=O)Nc1ccccc1F (stereo not drawn)
  4%	7%	9%	x	x	4%	8%	x
> COc1ccc(CCNC(=O)CSc2nc3[nH]ncc3c(=O)[nH]2)cc1OC
  35%	-4%[46.1 µM]	-4%	x	x	12%	2%	x
> CCC(C)NS(=O)(=O)c1ccc(S(=O)(=O)N2CCCC3(CCCCC3)C2)cc1 (stereo not drawn)
  0%	u	u	-2.4%	4%	u	-1%	-2%
> CCc1ccccc1NC(=O)CN1CCC(NC(=O)COC)CC1
  -19%	17%	-7%	-1.4%	-3%	2%	-3%	-2%
> CC(NC(=O)C(=O)NN=C1CCCCCC1)c1ccccc1 (stereo not drawn)
  12%	3%	32%[activator]	7.4%	15%	u	2%	19%
> CCOC(=O)c1c(NC(=O)CSc2nnnn2C)sc(C)c1-c1ccc(C)cc1
  0%	23µM*	u	-6.7%	u	u	8%	0%
> COc1ccc(/C=C/C(=O)NCC(=O)N/N=C/c2cccs2)cc1
  2%	-22%	-1%	x	x	0%	u	-5%
> CC(=O)Nc1ccccc1OCc1nnc(-c2ccccc2Cl)o1
  6%	-17%	-7%	x	x	23%	0%	-10%
> S=C(NCc1ccccc1)NC1CCSc2ccccc21 (stereo not drawn)
  3%	u	19%	x	x	u	-2%	14%

The results go on.
Values in the order: RE007 growth inh	Marburg entry inh	StopGo reporter	Cruzain Triton	Cruzain noTriton	LASV entry inh	SARS PLP yeast	NS1 function inh
> Brc1cccc(Nc2nc(-c3cccnc3)cs2)c1
  -6%	-14%	-27%	x	x	u	-13%	-52%
> Cc1cccc(-c2nnc(-c3cccc4ccccc34)o2)c1
  -6%	-4%	33%[activator]	x	x	-29%	x	x
> Cc1nccn1CC(=O)N/N=C/c1cc(Br)cs1
  10%	-16%[14.2 µM]	-14%	x	x	2%	8%	1%
> CCC(C)NC(=O)c1cc(S(=O)(=O)N2CCCCC2)c[nH]1 (stereo not drawn)
  6%	x	8%	x	x	x	3%	8%

Assay outcomes from PubChem.
